PKD1 inh: inhibitors of human PKD1 kinase; 200,000 compounds, 0.056% hits; inhibition, %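 (about 10 µM by stock and volumes)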; Q15139; PKD1 kinase fluorescence polarization assay;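 active = inhibition of 50% or more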;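 note: controls were vehicle for no effect and a reference inhibitor for full effect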
RGS16-Gao: regulators of human RGS16-Galphao interaction. O15492+P09471. 220,000 compounds, 0.38% hits. binding response (% of control), % at 10 µM. AID 1441. bead-based flow cytometry RGS16-Galphao binding, fluorescence; actives lie on both sides;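 active = below 25% or above 175%, edge rows of some plates excepted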;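 note: Galphao activated by GDP with aluminum fluoride before binding; 100% = wells without compound and 0% = beads without RGS; some results beyond the cut were filed as inactive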
Target sequence (O15492 whole entry, looked up): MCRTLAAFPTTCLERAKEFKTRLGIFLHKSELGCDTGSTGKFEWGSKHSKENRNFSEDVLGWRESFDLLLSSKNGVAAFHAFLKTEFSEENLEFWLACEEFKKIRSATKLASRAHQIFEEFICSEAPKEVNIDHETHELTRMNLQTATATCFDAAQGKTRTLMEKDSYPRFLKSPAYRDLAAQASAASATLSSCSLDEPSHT
Target sequence (P09471 whole entry, looked up): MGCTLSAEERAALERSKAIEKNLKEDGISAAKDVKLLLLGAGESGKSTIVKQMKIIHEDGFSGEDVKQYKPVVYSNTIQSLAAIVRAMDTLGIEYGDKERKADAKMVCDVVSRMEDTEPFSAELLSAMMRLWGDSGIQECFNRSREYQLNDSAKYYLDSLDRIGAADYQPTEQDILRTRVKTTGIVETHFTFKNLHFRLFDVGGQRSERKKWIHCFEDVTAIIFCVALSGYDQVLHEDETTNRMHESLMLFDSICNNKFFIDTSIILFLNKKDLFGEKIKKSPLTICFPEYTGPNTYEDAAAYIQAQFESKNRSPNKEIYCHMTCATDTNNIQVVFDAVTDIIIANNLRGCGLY
HSV replic up: HSV replication enhancement; HSV replication augmentation in cells, fold increase; maximum fold increase; 220,000 compounds, 0.005% hits;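 active = peak rise of 1.5-fold or more in the series; tested in PC3 cells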;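 note: first round at 10 µM; read as green reporter fluorescence; hits show the peak of a series up to 25 µM; 1 = signal of infected wells without compound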
GALR2 ag: GALR2 (human) receptor agonism; O43603; GALR2-expressing cells, agonist activation read-out; activation, %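 (tested at 5 µM)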; 140,000 compounds, 0.48% hits; AID 803;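 active = above mean plus 3 SD of all compounds, about 5% in these data, not always enough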;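 note: 0% = vehicle buffer wells and 100% = reference agonist at full effect; tested in CHO reporter cells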
Target sequence (O43603 whole entry, looked up): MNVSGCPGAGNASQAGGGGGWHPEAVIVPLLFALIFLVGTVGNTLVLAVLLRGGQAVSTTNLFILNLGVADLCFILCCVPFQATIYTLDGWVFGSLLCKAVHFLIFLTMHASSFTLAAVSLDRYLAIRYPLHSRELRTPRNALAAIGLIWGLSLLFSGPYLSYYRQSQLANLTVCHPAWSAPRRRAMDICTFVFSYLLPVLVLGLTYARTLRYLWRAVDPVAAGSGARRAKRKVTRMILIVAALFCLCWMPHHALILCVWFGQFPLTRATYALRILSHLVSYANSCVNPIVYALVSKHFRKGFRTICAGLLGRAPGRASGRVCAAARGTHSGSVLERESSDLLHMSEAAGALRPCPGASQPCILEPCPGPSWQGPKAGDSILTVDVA
Insulin prom inh: TRM-6 insulin promoter activity inhibition. 130,000 compounds, 0.9% hits. AID 1273. inhibition, % at 2 µM. TRM-6 cells (human fetal islet line), insulin promoter-eGFP reporter, imaging; reporter expression induced with tamoxifen;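 active = inhibition above the mean plus 3 SD, with well images judged a real hit on visual review, cut at about 60% in these data, passing the limit was not always enough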
Insulin prom inh cell count: further read-out of Insulin prom inh, marked with its call; normalized cell count, %; measured here: cell count, toxicity; reference of the scale not given here;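 cells exposed to compound for 48 h; stained nuclei by imaging scaled within each plate; lower means fewer cells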
HSV replic up primary fold: second read-out of HSV replic up, no call of its own (marks repeat the call); fold increase; compound at 10 µM; measured here: primary screen fold increase 10 uM; tested in PC3 cells;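 GFP signal in the first replicate; 1 = infected wells without compound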
Active calls of the source: *; i = inactive; x = no result given.

| canonical_smiles | PKD1 inh | RGS16-Gao | HSV replic up | HSV replic up primary fold | GALR2 ag | Insulin prom inh | Insulin prom inh cell count |
| --- | --- | --- | --- | --- | --- | --- | --- |
| Cc1ccc([N+](=O)[O-])cc1NC(=O)CN(C(=O)c1ccccc1Cl)C1CCCCC1 | -2 | 73 | i | 1.1 | -1.7 | 0 | 147 |
| Cc1ccccc1Cn1c(=O)n(CCCC(=O)NCc2ccco2)c(=O)c2sccc21 | -1 | 100 | i | 0.9 | -1.1 | -29 | 88 |
| O=c1cc(-c2ccc(C3CCCCC3)cc2)[nH][nH]1 | -2 | 104 | i | 0.99 | x | 11 | 127 |
| CN(C)c1ccc(N=Nc2ccccc2C(=O)OCC(=O)N2CCCC2)cc1 | -1 | 97 | i | 0.98 | -0.6 | x | x |
| COc1c(C)cc(C(=O)C2CCCN(C(=O)c3cc4nc(C)cc(C)n4n3)C2)cc1C (stereo unspecified) | -1 | 100 | i | 0.96 | x | x | x |
| COc1ccccc1-n1cnc2cc(NCc3ccccn3)ccc21 | -4 | 99 | i | 0.94 | -0.1 | 17 | 101 |
| Cc1ccc(OCc2csc(N)n2)cc1 | -3 | 104 | i | 1 | x | x | x |
| C/C(=C\C(=O)c1cccnc1)Nc1ccc(C)c(C)c1 | 7 | 101 | i | 1.1 | -0.7 | 86* | 74* |
| N#CCSc1nc2c(cc1C#N)CCCCCC2 | -4 | 101 | i | 0.77 | -1.6 | 68 | 141 |
| CC1(C)SC(=S)N(/N=C/c2cccnc2)C1N(O)C(=O)Nc1ccccc1 (stereo unspecified) | x | 99 | i | 0.93 | x | x | x |
| Cc1cc(C)n2c(Nc3ccc4c(c3)OCCO4)c(-c3ccco3)nc2n1 | -5 | 104 | i | 1.1 | 0.0 | x | x |
| O=C(OCc1nnc(-c2ccccc2)o1)c1ccc(S(=O)(=O)NCc2ccco2)cc1 | -7 | 114 | i | 0.79 | -3.7 | -3 | 129 |
| Cc1cc(C)c(C(=O)/C=C/c2ccc3c(c2)OCO3)c(=O)[nH]1 | 1 | 101 | i | 0.96 | x | x | x |
| COCCn1c(SCC(=O)Nc2sc(C)c(C)c2C#N)nnc1C(C)C | 2 | 102 | i | 0.91 | 2.5 | -50 | 96 |
| CC1(C)C(=O)C2(CCCCC2)C(=O)OC1C(=O)c1ccccc1 (stereo unspecified) | -10 | 101 | i | 0.85 | -0.8 | 50 | 120 |
| Cc1ccc(NC(=O)c2ccccc2-c2ccccc2C(=O)O)cc1 | -7 | 105 | i | 0.94 | -0.7 | -38 | 135 |
| O=C(CCCc1ccccc1)Nc1ccc2c(c1)OCCO2 | 2 | 111 | i | 0.97 | x | x | x |
| COc1ccc(N(C(=O)CNC(=O)c2cccs2)C(C(=O)NCC2CCCO2)c2ccccc2)cc1 (stereo unspecified) | 2 | 101 | i | 1.2 | x | -50 | 56 |
| O=c1c2cccc3c2c(nn1CN1CCOCC1)-c1ccccc1-3 | 16 | 101 | i | 0.7 | 2.1 | 31 | 81 |
| COC(=O)CCC(=O)N1CN2CN(C(=O)CCC(=O)OC)CC([N+](=O)[O-])(C2)C1 | x | 94 | i | 1 | x | x | x |
| Cc1n(N)c2ccccc2[n+]1CC(=O)c1ccccc1 | 0 | 100 | i | 0.92 | x | 21 | 145 |
| CCCS(=O)(=O)c1cscc1NC(=O)c1c(-c2c(F)cccc2Cl)noc1C | x | 104 | i | 0.86 | x | x | x |
| CC(=O)Nc1ccc(C(=O)Nc2cc(C(F)(F)F)ccc2-n2cnc3ccccc32)cc1 | 5 | 75 | i | 0.96 | -1.3 | 23 | 75 |
| CC1=C(C)CC(C(=O)Nc2ccc3c(c2)OCO3)C(C(=O)O)C1 (stereo unspecified) | -3 | 97 | i | 1 | x | -19 | 75 |
| C/C(N)=C(/C#N)C(=O)CSc1nnnn1-c1ccc(C)cc1 | 10 | 105 | i | 0.91 | -2.5 | x | x |
| CC(C)(CNS(=O)(=O)c1ccc2c(c1)OCCO2)N1CCOCC1 | -7 | 104 | i | 0.95 | x | -29 | 108 |
| O=C(c1cccc(S(=O)(=O)N2CCCC2)c1)N1CCN(c2ccccc2F)CC1 | -2 | 102 | i | 0.88 | -2.6 | -454 | 70 |
| CCOc1ccc(N(CC(=O)NCC2CCCO2)C(=O)CCC(=O)Nc2ccccn2)cc1 (stereo unspecified) | -6 | 86 | i | 1 | -1.2 | 62 | 134 |
| Cc1ccc(-c2csc(Cc3nc(-c4cc5ccccc5oc4=O)cs3)n2)cc1 | -7 | 105 | i | 1 | -0.9 | x | x |
| COc1ccc(/C=N/NC(=O)c2ccccc2O)cc1CN1CCOCC1 | x | 95 | i | 0.92 | x | x | x |

Molecules listed so far that have a nitro group on carbon (two):
| canonical_smiles | PKD1 inh | RGS16-Gao | HSV replic up | HSV replic up primary fold | GALR2 ag | Insulin prom inh | Insulin prom inh cell count |
| --- | --- | --- | --- | --- | --- | --- | --- |
| Cc1ccc([N+](=O)[O-])cc1NC(=O)CN(C(=O)c1ccccc1Cl)C1CCCCC1 | -2 | 73 | i | 1.1 | -1.7 | 0 | 147 |
| COC(=O)CCC(=O)N1CN2CN(C(=O)CCC(=O)OC)CC([N+](=O)[O-])(C2)C1 | x | 94 | i | 1 | x | x | x |

The main list resumes, repeating the 3 entries before the break.
| canonical_smiles | PKD1 inh | RGS16-Gao | HSV replic up | HSV replic up primary fold | GALR2 ag | Insulin prom inh | Insulin prom inh cell count |
| --- | --- | --- | --- | --- | --- | --- | --- |
| CCOc1ccc(N(CC(=O)NCC2CCCO2)C(=O)CCC(=O)Nc2ccccn2)cc1 (stereo unspecified) | -6 | 86 | i | 1 | -1.2 | 62 | 134 |
| Cc1ccc(-c2csc(Cc3nc(-c4cc5ccccc5oc4=O)cs3)n2)cc1 | -7 | 105 | i | 1 | -0.9 | x | x |
| COc1ccc(/C=N/NC(=O)c2ccccc2O)cc1CN1CCOCC1 | x | 95 | i | 0.92 | x | x | x |
| Brc1ccc2c(c1)OCCOCCOc1cc(Br)ccc1OCCOCCOCCO2 | -9 | 97 | i | 0.72 | -2.0 | -30 | 93 |
| O=C(CSc1nc2ccccc2s1)NNC(=S)Nc1ccc(Br)cc1 | 19 | 99 | x | x | -1.1 | x | x |
| COc1ccccc1NS(=O)(=O)c1cc(C(=O)NCCN2CCOCC2)ccc1Cl | 2 | 103 | i | 0.85 | 0.2 | 30 | 109 |
| COc1ccc(CC(=O)Nc2cc(S(=O)(=O)N3CCOCC3)ccc2N2CCOCC2)cc1 | -3 | 98 | i | 1.1 | x | x | x |
| C/C(=N\NC(=O)COc1ccc(C(C)(C)C)cc1)c1ccc(-n2ccnc2)cc1 | -8 | 102 | i | 1 | 1.1 | x | x |
| Nc1nc(-c2ccco2)nn1C(=O)c1ccccc1Cl | 0 | 99 | i | 0.99 | x | x | x |
| COc1ccccc1N/C(N)=N/c1nc(CSc2nc3ccccc3s2)cc(=O)[nH]1 | 4 | 106 | i | 0.84 | -1.0 | -15 | 64 |
| c1ccc(Nc2nc(N3CCOCC3)c3ccccc3n2)cc1 | 1 | 104 | i | 0.85 | -1.8 | 27 | 66 |
| CC1(C)CC2(CCCN(C(=S)Nc3ccccc3)C2)CCO1 (stereo unspecified) | x | 100 | i | 0.77 | x | x | x |
| C=CCSc1nc(N(CC)CC)c2sccc2n1 | -13 | 92 | i | 0.81 | -1.2 | 43 | 111 |
| CC(C)OP(=O)(OC(C)C)C1(O)C(=O)Nc2ccc(Br)cc21 (stereo unspecified) | -6 | 105 | i | 1 | -3.2 | -7 | 99 |
| COc1ccc(CN(N=O)C2CC(=O)N(c3ccc(OC)cc3)C2=O)cc1 (stereo unspecified) | x | 98 | i | 1 | x | x | x |
| CCOC(=O)c1c(C)[nH]c(C(=O)CSc2nnc(-c3cccs3)n2Cc2ccccc2)c1C | -7 | 106 | i | 0.96 | -1.0 | 47 | 74 |
| CCn1nc(C)c(/C=N/NC(=S)Nc2ccc(Cl)cc2Cl)c1C | -9 | 108 | i | 0.71 | 3.1 | 0 | 95 |
| O=C(Cn1c(=O)c2c(ncn2C2CCCC2)n(Cc2ccccc2)c1=O)N1CCc2ccccc21 | -5 | 107 | i | 0.89 | 0.7 | x | x |
| COC(=O)CN(c1cccc(F)c1)S(C)(=O)=O | 7 | 106 | i | 1 | -0.6 | 28 | 145 |
| COc1ccc2[nH]c(=O)c(CN(C(=O)c3cccnc3)c3ccc(C)cc3)cc2c1 | -8 | 104 | i | 1 | -0.9 | -22 | 52 |
| CC(C)C(=O)NC(=S)Nc1ccccc1F | 0 | 97 | i | 0.48 | -2.4 | x | x |
| CN1C(=O)C(CC(=O)N2CCN(C(c3ccccc3)c3ccccc3)CC2)N(C)C1=O (stereo unspecified) | -4 | 113 | i | 0.83 | -1.4 | -9 | 73 |
| COc1ccc(CNC(=S)Nc2ccccc2-c2ccccc2)cc1 | 5 | 94 | i | 1.1 | x | x | x |
| Cc1cc(S(=O)(=O)NC2CCCC2)ccc1F | -2 | 102 | i | 0.96 | -0.9 | 57 | 65 |
| C/C(CCc1ccc2c(c1)OCO2)=N\NC(=O)c1ccc(C)cc1C | -2 | 98 | i | 0.88 | x | 20 | 128 |
| COc1ccc(-c2[nH]ncc2CN(C)C(C)c2ccon2)c(OC)c1 (stereo unspecified) | 3 | 101 | i | 1.1 | x | x | x |
| O=C(NNC1=C(C(=O)C(F)(F)F)CCC1)c1ccccc1Cl | -8 | 120 | i | 1.1 | -2.8 | 17 | 83 |
| COC(=O)Cc1c(O)ccn(Cc2cccc(C(F)(F)F)c2)c1=O | -5 | 101 | i | 0.99 | x | -3 | 159 |
| Cc1ccccc1Cn1c(=O)n(-c2ccccc2)c(=O)c2ccc(C(=O)NCc3ccco3)cc21 | -5 | 96 | x | x | 0.0 | -17 | 82 |
| COCC(=O)N(Cc1cc2cc(OC)ccc2[nH]c1=O)c1ccc(C)cc1 | -10 | 99 | i | 0.97 | -1.9 | 31 | 144 |
| COC(=O)c1ccc(NC(=O)C2CC(=O)N(c3ccc(C)cc3)C2)cc1 (stereo unspecified) | -3 | 104 | i | 0.93 | -2.8 | -338 | 82 |
| CCOC(=O)c1c(C)c(-c2ccccc2)n(CC(=O)N2CCN(C)CC2)c1C | -5 | 104 | i | 0.87 | -0.4 | x | x |
| Cc1cc(S(=O)(=O)N(Cc2ccccn2)Cc2ccco2)ccc1-n1cnnn1 | 6 | 118 | i | 1 | -1.8 | 10 | 124 |
| CCOc1ccc(-n2c(=S)sc3c(=O)[nH]c(SCC(=O)N4CCC(C)CC4)nc32)cc1 | -3 | 90 | x | x | -1.9 | 8 | 96 |
| CCOc1cc(S(=O)(=O)Nc2ccc(Cl)cn2)ccc1Cl | -14 | 18 | i | 1 | -2.5 | 2 | 99 |
| N#Cc1c(-c2ccccc2)ccnc1Oc1ccccc1 | 3 | 100 | i | 0.85 | -1.4 | 16 | 106 |
| O=C(CCN1CCOCC1)NNC(=O)/C(=C/c1ccccc1)NC(=O)c1ccccc1 | -3 | 64 | i | 0.94 | x | 0 | 123 |
| CCOC(=O)C1CCCN(C(=O)N2CCOCC2)C1 (stereo unspecified) | -11 | 96 | i | 0.94 | 0.2 | x | x |
| Cc1ccc(C(=O)NC(=S)NNS(=O)(=O)c2ccccc2)cc1 | 0 | 98 | i | 0.98 | x | 58 | 99 |
| Cc1cc(-n2nc(C)cc2C)nc(NS(=O)(=O)c2ccccc2Cl)n1 | -12 | 102 | i | 0.92 | -0.7 | -9 | 73 |
| O=C(CN1CCN(c2ncccn2)CC1)N(Cc1ccccc1)c1ccc(F)cc1 | -7 | 98 | i | 0.97 | -2.0 | 10 | 82 |
| N=C1C(c2ccccc2)=C(O)C2CCc3ccccc3N12 (stereo unspecified) | -4 | 103 | i | 0.87 | -0.9 | 19 | 101 |
| COc1cccc(C(=O)N2CCCc3ccccc32)c1 | -10 | 67 | i | 0.99 | -0.5 | -9 | 125 |
| COc1ccc(C(C)(C)C)cc1NC(=O)c1cc(S(=O)(=O)N(C)C)ccc1N1CCCC1 | -3 | 92 | i | 0.91 | -0.6 | x | x |
| CCN(CC)S(=O)(=O)c1cccc(NC(=O)CN(C)C2CCCCC2)c1 | -3 | 101 | i | 0.94 | x | -60 | 128 |
| CCCCNc1ccc(C(=O)O)cc1 | x | 100 | i | 1.3 | x | x | x |
| Cc1cccc(/C=N/n2c(-c3ccccn3)n[nH]c2=S)c1 | 6 | 100 | i | 1 | -0.3 | x | x |

Record cards, as listed above:
Cc1ccccc1Cn1c(=O)n(CCCC(=O)NCc2ccco2)c(=O)c2sccc21 reads PKD1 inh: -1; RGS16-Gao: 100; HSV replic up: i; HSV replic up primary fold: 0.9; GALR2 ag: -1.1; Insulin prom inh: -29; Insulin prom inh cell count: 88
CCCS(=O)(=O)c1cscc1NC(=O)c1c(-c2c(F)cccc2Cl)noc1C reads PKD1 inh: x; RGS16-Gao: 104; HSV replic up: i; HSV replic up primary fold: 0.86; GALR2 ag: x; Insulin prom inh: x; Insulin prom inh cell count: x
